Compound activity from PubChem.
Mtb H37Rv: M. tuberculosis H37Rv growth inhibitors, H37Rv strain (AID 1626). inhibition, % at 10 µM, or IC50 in µM where a hit was titrated. M. tuberculosis H37Rv growth inhibition; higher % means a stronger effect. 0.95% of 220,000 active;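 active means confirmed in a dose series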;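 further: bacteria incubated seven days before Alamar blue readout; 0% = bacteria only wells and 100% = bacteria with antibiotic wells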
Arbovirus anti: blocks arbovirus infection. arbovirus infection cell-based antiviral screen. inhibition, % at 10 µM. 0.37% of 200,000 active;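 active means inhibition from about 30%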;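 further: bluetongue infection of BSR cells; cell survival read as ATP light after 72 h; 0% = infected wells without compound and 100% = uninfected wells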
RecA splice inh: Mtb RecA intein splicing inhibition; cell-free RecA intein splicing, fluorescence; AID 2221; 0.75% of 290,000 active; P9WHJ3; inhibition, %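 (about 9 µM by stock and volumes)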; in the data active means inhibition above about 30%;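 further: 0% = vehicle wells and 100% = reference inhibitor control wells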
Target sequence (P9WHJ3 whole entry, looked up, canonical isoform): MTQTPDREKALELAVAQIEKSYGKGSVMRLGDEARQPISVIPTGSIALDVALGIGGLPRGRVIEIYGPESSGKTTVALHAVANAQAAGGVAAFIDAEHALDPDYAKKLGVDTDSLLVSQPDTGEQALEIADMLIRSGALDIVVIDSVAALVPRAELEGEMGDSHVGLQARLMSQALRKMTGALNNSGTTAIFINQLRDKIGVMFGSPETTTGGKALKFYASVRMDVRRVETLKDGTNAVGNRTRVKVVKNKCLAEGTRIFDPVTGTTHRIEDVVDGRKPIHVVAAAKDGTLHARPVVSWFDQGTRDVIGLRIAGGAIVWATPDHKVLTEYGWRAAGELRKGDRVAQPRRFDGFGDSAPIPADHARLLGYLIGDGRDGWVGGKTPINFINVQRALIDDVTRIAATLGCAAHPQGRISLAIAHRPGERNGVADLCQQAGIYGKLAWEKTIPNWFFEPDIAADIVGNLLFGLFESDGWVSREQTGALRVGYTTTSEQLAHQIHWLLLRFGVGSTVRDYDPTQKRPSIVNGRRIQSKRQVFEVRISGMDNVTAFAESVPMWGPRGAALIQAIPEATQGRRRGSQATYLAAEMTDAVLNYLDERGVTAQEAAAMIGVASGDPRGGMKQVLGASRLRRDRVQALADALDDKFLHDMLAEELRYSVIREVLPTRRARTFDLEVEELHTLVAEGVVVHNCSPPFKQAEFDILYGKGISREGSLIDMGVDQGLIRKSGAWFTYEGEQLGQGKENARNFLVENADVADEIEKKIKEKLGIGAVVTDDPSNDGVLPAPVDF
YopH PTP inh: inhibitors of Yersinia enterocolitica YopH tyrosine phosphatase; 0.16% of 140,000 active; fluorescence Ex485/Em525; AID 898; inhibition, %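 (about 10 µM by stock and volumes)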;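 active means inhibition of 50% or more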;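 further: controls were vehicle for no effect and minimum signal wells for full effect; inactives centre near -20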
Mtb bLac sens: beta-lactam sensitization of Mtb H37Rv. inhibition, % at 25 µM. M. tuberculosis H37Rv growth with meropenem, percent inhibition; hits of this screen are not shown here. AID 434955. 0.27% of 330,000 active;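 active means about 74% or more and at least 40 points above the plate without the antibiotic, then above 30% in a dose series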;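 further: growth measured after seven days incubation then overnight dye step; 0% = bacteria only wells and 100% = bacteria with antibiotic; twin plates without the antibiotic show which effects depend on it; some results filed as inactive read as strong as hits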
Arbovirus anti repeat: also measured in Arbovirus anti; calls as there; inhibition, %; measured here: 10K subset replicate screen; many hits read low in the repeat;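 first of two repeat runs on a subset; 0% = infected and 100% = uninfected wells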
Active calls of the source: *; . = no result given. The list is partial. The share of hits here may be higher or lower than overall.

SMILES	Mtb H37Rv	Arbovirus anti	RecA splice inh	YopH PTP inh	Mtb bLac sens	others
CCOc1ccc(-c2c(C(=O)N/N=C/c3cccs3)nnn2-c2nonc2N)cc1	.	.	-2.2	.	-3
Cc1cc(C)c2c(CC(=O)O)coc2c1	-6%	7	-1.9	-14	5	Arbovirus anti repeat=2
S=c1[nH]cc(-c2ccccc2)[nH]1	59%	.	-2.2	.	78
CN(C)/C=C1/Nc2ccccc2C1=O	-1%	-6	24	6	-6
CS(=O)(=O)n1nc(-c2ccco2)nc1N	0%	-2	-0.4	.	-7
O=c1cc(N2CCCCCC2)[nH]c(=O)n1-c1ccc(Cl)cc1	-1%	2	-7.1	.	-6
COc1ccc(OC)c(C2=NOC(C(=O)Nc3ccc4c(c3)OCCO4)C2)c1 (stereo not given)	.	.	2.5	.	0
O=C(NCc1ccco1)C1CC(=O)N(CCc2ccccc2)C1 (stereo not given)	-8%	0	0.2	-20	-4
CC(C)N(C)C(=O)C(=O)c1cccn1-c1cccc(Cl)c1C#N	4%	24	0.4	.	2
CSc1ccc(C(C(C(=O)c2cccs2)N2CCOCC2)N2CCOCC2)cc1 (stereo not given)	-2%	21	16	-38	-4
O=C(Cn1nc(-c2ccc(Cl)cc2)ccc1=O)NCCN1CCOCC1	-1%	1	-3.7	-30	0	Arbovirus anti repeat=0
Cc1c(-c2csc(N)n2)c2ccccc2n1C	.	.	1.6	.	-9
CCOC(=O)c1cc(C(=O)c2cccs2)n2ccc(C(C)=O)cc12	-9%	-28	-3.1	9	90
COc1cc(C(=O)NCC(=O)NC(C)c2ccc(-n3ccnc3)cc2)cc(OC)c1OC (stereo not given)	.	.	-1.4	.	-8
CN(CC(=O)NCCN1CCN(c2ccccc2)CC1)S(=O)(=O)c1ccc2c(c1)CCC(=O)N2	1%	2	1.2	-23	-9
CCN1C[C@]2(COC)CC[C@H](O)[C@@]34C5C[C@@H]6[C@@H](OC)C[C@@](O)(C5[C@H]6O)[C@](O)([C@@H](OC)C23)[C@@H]14 (stereo not given in full)	-7%	.	-0.9	.	-7
O=C(CSc1nnc2c(Cl)cc(Cl)cn12)N1CCN(c2ccc(F)cc2)CC1	-2%	3	1.4	-24	1
C=CCn1c(O)c(N=NC(=O)c2ccccc2NS(=O)(=O)c2cccs2)c2ccccc21	1%	5	-0.5	-35	-2
O=C(c1ccc(C(F)(F)F)cc1)C1CCCN(C(=O)CCc2ccncc2)C1 (stereo not given)	.	.	-2.5	.	3
CCOC(=O)c1ccccc1NS(=O)(=O)c1ccc(OCC)cc1	-6%	-10	9.9	-8	-9
O=C(NC1CCCc2ccccc21)C1CCCN(S(=O)(=O)c2cnc[nH]2)C1 (stereo not given)	-15%	15	.	-39	3
CSc1ccc(/C=c2\s/c(=C\C(=O)C(C)(C)C)n(CC(=O)NCCC3=CCCCC3)c2=O)cc1	5%	8	-2.7	8	4
CCOC(=O)c1ccc(CN2C(=O)c3ccccc3S2(=O)=O)cc1	.	.	-0.5	.	-9
C=C(C)COc1ccc(-c2nc(N)nc(C)c2Oc2ccccc2OC)c(O)c1	4%	-6	1.2	-39	-4
N#Cc1ccc(NC(=O)COC(=O)CNC(=O)C2CCCCC2)cc1	-2%	3	2.4	-1	3
COc1ccc(N(C(=O)c2cc3ccccc3oc2=O)C2C=CS(=O)(=O)C2)cc1 (stereo not given)	3%	1	-1.5	.	-15
O=C(CC1CCCCC1)N=C1SC2CS(=O)(=O)CC2N1c1ccccc1 (stereo not given)	.	.	5.4	.	-3
Cc1cccc(OC(C)C(=O)Nc2ccc(N3CCCCC3)cc2)c1 (stereo not given)	.	.	1.8	.	2
Cc1cc(C)cc(-n2c(=O)c3sccc3n(CC(=O)NCc3ccco3)c2=O)c1	-7%	5	2.3	-45	2
COc1ccc(N2CCN(C(=O)c3ccc4c(c3)CCN4S(=O)(=O)c3ccccc3)CC2)cc1	.	.	2.1	.	7
CCCC(=O)OCC(=O)NCc1ccc(Cl)cc1	5%	5	1.9	.	-15
COc1ccc(NC(=O)C2CC(=O)n3cnnc3S2)cc1 (stereo not given)	-6%	-1	5.2	-6	-6
CCOC(=O)c1c(-c2ccc(OC)cc2)csc1NC(=O)COc1ccc2c(C)cc(=O)oc2c1	-6%	-11	1.0	-3	10
O=C(O)c1ccc2c(c1)N(Cc1cccc(F)c1)C(=O)CS2	21%	5	-1.8	-23	23	Arbovirus anti repeat=6
S=C(NCc1ccccc1)N1CCCCC1	0%	8	0.1	.	-4
CCC(C)NC(=O)c1cnn2c1NC(c1ccc3c(c1)OCO3)CC2C(F)(F)F (stereo not given)	-5%	-4	-1.3	-45	-6
O=C(Nc1ccc2oc(-c3ccccc3)nc2c1)c1ccc2c(c1)OCCO2	0%	-1	.	-10	6
Cc1ccc2[nH]c(=O)c(CN(CC3CCCO3)C(=O)c3ccncc3)cc2c1 (stereo not given)	3%	-4	2.2	-1	-4
O=C(Nc1ccc(NC(=O)C2CC2)nc1)c1ccccc1F	.	.	6.5	.	-6
COCCCNC(=S)NC(=O)c1ccc(C)cc1	-2%	7	2.1	-33	7

Random excerpt: 2 compounds from above, in no set order.
SMILES	Mtb H37Rv	Arbovirus anti	RecA splice inh	YopH PTP inh	Mtb bLac sens	others
O=C(Nc1ccc(NC(=O)C2CC2)nc1)c1ccccc1F	.	.	6.5	.	-6
Cc1cccc(OC(C)C(=O)Nc2ccc(N3CCCCC3)cc2)c1 (stereo not given)	.	.	1.8	.	2

(continued)
SMILES	Mtb H37Rv	Arbovirus anti	RecA splice inh	YopH PTP inh	Mtb bLac sens	others
CC(=O)OCCC(NS(=O)(=O)OCC(Cl)(Cl)Cl)c1ccccc1 (stereo not given)	.	.	2.5	.	-5
OC(CNCC1COc2ccccc2O1)COCc1cccs1 (stereo not given)	7%	14	-1.5	-30	-8
O=C(NCCN1C(=O)S/C(=C\c2ccccc2Cl)C1=O)C1=COCCO1	.	.	4.8	.	2
COc1ccc(/C=C2/SC(=S)N(Cc3ccccc3)C2=O)cc1O	.	.	11	.	10
C=CCOc1ccc(CNc2nccs2)cc1	12%	-19	1.0	-23	1
Cc1cc(C)c(S(=O)(=O)N2CCCCC2)c(C)c1N(C)S(=O)(=O)c1ccccc1	-4%	-13	7.3	-16	4
Cc1cc(Br)ccc1NC(=O)C(C)c1ccc([N+](=O)[O-])cc1 (stereo not given)	-1%	3	-0.8	-17	84
CC(C)C(=O)Nc1ccc(S(=O)(=O)Nc2nccc(/C=C/c3ccccc3)n2)cc1	4%	16	-4.5	-20	0
O=c1c2ccccc2nc2c3ccccc3c(NCc3ccccn3)nn12	6%	-10	-7.2	.	2
O=C(Nc1nccs1)[C@@H]1CC=C[C@@H]2CCN(Cc3ccccc3)C(=O)[C@@H]21	-3%	.	-1.6	.	-2
O=C(N/N=C/c1ccc(O)cc1)/C(=C/c1ccc([N+](=O)[O-])cc1)NC(=O)c1ccccc1	-7%	-8	0.5	-36	-1
Cc1ccc(S(=O)(=O)N2CCCCC2)cc1NC(=O)COC(=O)Cc1ccc(Cl)cc1	-2%	-2	2.5	-33	-2
CCOc1cc(C(N)=O)cc(Cl)c1OCc1ccccc1	9%	-2	4.1	.	2
O=C(Nc1cccnc1)c1cccc(S(=O)(=O)N2CCc3ccccc32)c1	-3%	6	2.4	.	6
Cc1ccc(/C=N/NC(=O)C2CCN(Cc3ccc(F)cc3Cl)CC2)o1	-5%	-2	-4.0	-30	-7
COc1ccc2nc(C)c3c(c2c1)OC(C(C)(Cl)Br)C3 (stereo not given)	.	.	3.9	.	1
O=C(NCC(=O)N1CCc2ccccc2C1)c1ccc(Cl)cc1Cl	.	.	0.8	.	-7
CC1CCc2c(C(=O)Nc3ccc(N4CCOCC4)cc3)csc2C1 (stereo not given)	-3%	-16	0.3	.	0
CCn1cc(C(=O)N(C)c2ccc(OC)cc2)c2cc(OC)c(OC)cc2c1=O	.	.	7.2	.	-1
CCOC(=O)CSc1nc2c(sc3ccc([N+](=O)[O-])cc32)c(=O)n1Cc1ccco1	-2%	-14	-4.1	-27	-3

Nothing new here: 18 of the compounds above.
SMILES	Mtb H37Rv	Arbovirus anti	RecA splice inh	YopH PTP inh	Mtb bLac sens	others
O=C(NCCN1C(=O)S/C(=C\c2ccccc2Cl)C1=O)C1=COCCO1	.	.	4.8	.	2
COc1ccc(/C=C2/SC(=S)N(Cc3ccccc3)C2=O)cc1O	.	.	11	.	10
C=CCOc1ccc(CNc2nccs2)cc1	12%	-19	1.0	-23	1
Cc1cc(C)c(S(=O)(=O)N2CCCCC2)c(C)c1N(C)S(=O)(=O)c1ccccc1	-4%	-13	7.3	-16	4
Cc1cc(Br)ccc1NC(=O)C(C)c1ccc([N+](=O)[O-])cc1 (stereo not given)	-1%	3	-0.8	-17	84
CC(C)C(=O)Nc1ccc(S(=O)(=O)Nc2nccc(/C=C/c3ccccc3)n2)cc1	4%	16	-4.5	-20	0
O=c1c2ccccc2nc2c3ccccc3c(NCc3ccccn3)nn12	6%	-10	-7.2	.	2
O=C(Nc1nccs1)[C@@H]1CC=C[C@@H]2CCN(Cc3ccccc3)C(=O)[C@@H]21	-3%	.	-1.6	.	-2
O=C(N/N=C/c1ccc(O)cc1)/C(=C/c1ccc([N+](=O)[O-])cc1)NC(=O)c1ccccc1	-7%	-8	0.5	-36	-1
Cc1ccc(S(=O)(=O)N2CCCCC2)cc1NC(=O)COC(=O)Cc1ccc(Cl)cc1	-2%	-2	2.5	-33	-2
CCOc1cc(C(N)=O)cc(Cl)c1OCc1ccccc1	9%	-2	4.1	.	2
O=C(Nc1cccnc1)c1cccc(S(=O)(=O)N2CCc3ccccc32)c1	-3%	6	2.4	.	6
Cc1ccc(/C=N/NC(=O)C2CCN(Cc3ccc(F)cc3Cl)CC2)o1	-5%	-2	-4.0	-30	-7
COc1ccc2nc(C)c3c(c2c1)OC(C(C)(Cl)Br)C3 (stereo not given)	.	.	3.9	.	1
O=C(NCC(=O)N1CCc2ccccc2C1)c1ccc(Cl)cc1Cl	.	.	0.8	.	-7
CC1CCc2c(C(=O)Nc3ccc(N4CCOCC4)cc3)csc2C1 (stereo not given)	-3%	-16	0.3	.	0
CCn1cc(C(=O)N(C)c2ccc(OC)cc2)c2cc(OC)c(OC)cc2c1=O	.	.	7.2	.	-1
CCOC(=O)CSc1nc2c(sc3ccc([N+](=O)[O-])cc32)c(=O)n1Cc1ccco1	-2%	-14	-4.1	-27	-3

Continued.
SMILES	Mtb H37Rv	Arbovirus anti	RecA splice inh	YopH PTP inh	Mtb bLac sens	others
O=C1CN(C(=O)CSc2nnc(C3CC3)n2-c2ccccc2)c2ccccc2N1	3%	1	2.3	-34	-4
COc1ccc(N2C(=O)CC(SCC(=O)O)C2=O)cc1 (stereo not given)	-11%	1	0.5	-23	0
COc1ccc(CNC(=O)C2CCN(C(=O)c3ccc(-c4ccccc4)cc3)CC2)cc1	.	.	0.8	.	9
CCc1cc(C(=O)NCC(c2cccs2)N2CCOCC2)sc1C (stereo not given)	.	.	1.2	.	2
COc1ccc(/C=C(\C#N)C(=O)OCC(=O)NCc2ccccc2Cl)cc1	5%	1	-0.7	.	4
CC(=O)Oc1ccc(-c2cc3ccccc3oc2=O)cc1	.	.	0.6	.	0
CCN(CC)S(=O)(=O)c1ccc(C)c(NC(=S)N2CCN(c3ccccn3)CC2)c1	.	.	3.0	.	5
Cc1cc(C)c(NC(=O)CS(=O)CC(=O)NCC2CCCO2)c(C)c1 (stereo not given)	-14%	-1	1.3	-19	-4
N#CC1=C(N)NC(SCc2ccccc2)=C(C#N)C12CCCCC2	.	-13	14	-44	16
COc1ccc(Cc2nc3ccc(C(=O)N4CCCC4)cc3o2)cc1OC	.	.	0.9	.	0
CCNc1nc(NCC)nc(Nn2cnnc2)n1	-2%	0	-5.3	1	-1
COc1ccc(CN(Cc2cccnc2)C(=S)NCCc2ccccc2)cc1OC	-3%	5	2.4	-34	-18
COc1ccc(C(C(=O)NC(C)(C)C)N(Cc2ccc(F)cc2)C(=O)CCC(=O)Nc2cc(C)on2)cc1 (stereo not given)	.	.	-0.5	.	1
CCCNC(=S)N1CCN(CC)CC1	4%	-3	-0.3	-20	-1
CCCC(C(=O)NCc1ccco1)N(CC1CCCO1)C(=O)CNS(=O)(=O)c1ccc(F)cc1 (stereo not given)	.	.	-2.3	.	-2
Cc1ccccc1COC(=O)CNC(=O)c1sc2ccccc2c1Cl	.	.	18	.	89
Cc1ccc(CNC(=O)Nc2ccc(Cl)cc2)cc1	.	.	1.0	.	5
Cc1ccc(N2C(=O)c3ccccc3C2Nc2cccnc2)nc1 (stereo not given)	14%	8	2.3	-10	1
CC1CCN(S(=O)(=O)c2ccc(NC(=O)CN3CCCC(C)C3)cc2)CC1 (stereo not given)	2%	-17	-1.2	-1	-8
CN(C)c1ccc(/C=N/N=C/c2ccccc2O)cc1	0%	-10	-10	-31	5
FC(F)(F)c1ccccc1Nc1nccs1	3%	6	2.5	-32	-17
CCCCC(=O)NNC(=S)NC(=O)C(c1ccccc1)c1ccccc1	7%	-2	1.9	.	2
CCCCCCCCCn1cc(C(C)=O)c(=O)[nH]c1=O	10%	-3	2.1	-4	-4
O=C(CSc1nc(-c2ccccc2F)nc2nc[nH]c12)Nc1c(Cl)cc(Cl)cc1Cl	-1%	-12	-1.7	-5	-3
